CtBP-E1A blk – CtBP/E1A binding inhibition | AlphaScreen GST-E1A/His-CtBP binding, 1536-well; hits give low values; control for the full effect not named in the record | activity change, % (concentration not given with the values) | actives 0.49% (n = 340,000) | AID 651724; in the data active means activity change below about -65%; inconclusive means about -30% to -65%; inactive means above about -30%; further: on the % scale 0 is the no-effect control and ±100 the full control effect
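AlphaScreen with 125 nM GST-E1A and 125 nM His-CtBP (5X stocks) in Tris pH 8.0, 300 mM NaCl, BSA, Tween 20, TCEP. Compounds preincubated 2 h at 37 deg C, then glutathione donor/nickel acceptor beads added for 1 h at 37 deg C in dark.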
Menin-MLL FL inh – inhibitors of human menin-MLL interaction, wild-type MLL peptide | Fluorescence polarization, fluorescein-MLL peptide displacement from menin | FP activity change, % at 61.4 µM | 290,000 tested, under 10 active | AID 1766; inconclusive = falling polarisation curve, or a change in total fluorescence; inactive = total fluorescence flat and polarisation flat or rising; no compound was filed as active; the % refers to the polarisation; negative = inhibition;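 further: % of control where 0% means no effect; inhibitors lower the polarisation; unlabelled MLL peptide was the positive control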
gsp antag – gsp mutant antagonism; actives 0.4% (n = 340,000); Potency, µM (titrated, usually from 76.9 µM), inactives show top-dose activity change, negative = inhibition, most hits filed as inhibitors; gsp-mutant cells, cAMP HTRF, 30 min; control for the full effect not named in the record; active = falling curve of any shape with a large fitted effect; inconclusive = falling curve, mostly with a smaller effect; inactive = flat or rising curve; cell line not stated here;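 further: intracellular cAMP measured with PDE inhibitor Ro 20-1724 present during compound exposure; potency means the concentration at half of the fitted maximal effect; on the % scale 0 is the no-effect control and ±100 the full control effect; nearly all actives have a fitted effect of over 65% in size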
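Measurement of cellular cAMP by homogeneous time-resolved fluorescence following a 30 min compound exposure at 37C. The PDE inhibitor […] was present throughout; the assay buffer was DPBS with 0.05% BSA and 0.005% Tween 20.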
Sfp inh – inhibitors of Bacillus subtilis Sfp phosphopantetheinyl transferase | Q9F4F7 | Biochemical Sfp PPTase activity, qHTS | Potency, µM, for inactives: max response, negative = inhibition, most hits filed as inhibitors | actives 3.5% (n = 310,000); active means well fitted inhibition curve with a large enough effect; inconclusive means small, poorly fitted or top-dose-only effect, or another doubt; inactive means no such curve, though single readings can be large or run the other way;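 further: the enzyme is Sfp with the accession as filed and its product quenches rhodamine fluorescence; potency means the concentration at half of the fitted maximal effect; 0% = enzyme reaction without inhibitor and -100% = no enzyme wells; top concentration of the series not given in the record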
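After 15 min at room temperature with compound, 15 nM Sfp received 5 uM rhodamine-CoA plus 12.5 uM BHQ-2-ybbR (50 mM Hepes pH 7.6, 10 mM MgCl2). Rate came from the fluorescence difference over 30 min, ex 525/em 598 nm.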
gsp ag – gsp mutant agonism; gsp mutant cells, cAMP HTRF, 30 min; control for the full effect not named in the record; AID 624287; Potency, µM (highest dose often 76.9 µM), for inactives: at the top dose activation (cAMP increase), most hits filed as activators; actives 0.13% (n = 340,000); active = well fitted activation curve with a large enough effect; inconclusive = small, poorly fitted or top-dose-only effect, or another doubt; inactive = no such curve, though single readings can be large or run the other way; cell line not stated here;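 further: phosphodiesterase inhibitor Ro 20-1724 added with compounds to block cAMP breakdown; potency means the concentration at half of the fitted maximal effect; nearly all actives have a fitted effect of over 60% in size; about a fifth of the inactives were tested at one dose only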
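Cells in DMEM/10% FBS with G418 were pretreated with compounds in DMSO plus […] (300 uM stock) for 30 min at 37C. cAMP was measured by HTRF (cAMP-d2 plus anti-cAMP antibody-K) after 30 min at room temperature.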
TRPV1 PAM – potentiators of human vanilloid receptor 1 (TRPV1); Q8NER1; TRPV1-expressing cells, Fluo-8 calcium influx, capsaicin EC20 potentiation; host cell line not named in the record; control for the full effect not named in the record; potentiation, % at 8.33 µM; actives 0.02% (n = 320,000); active means potentiation above 80%; inconclusive means 30% to 80%; inactive means below 30%; further: 0% is about no effect
Target sequence (Q8NER1 whole entry, looked up): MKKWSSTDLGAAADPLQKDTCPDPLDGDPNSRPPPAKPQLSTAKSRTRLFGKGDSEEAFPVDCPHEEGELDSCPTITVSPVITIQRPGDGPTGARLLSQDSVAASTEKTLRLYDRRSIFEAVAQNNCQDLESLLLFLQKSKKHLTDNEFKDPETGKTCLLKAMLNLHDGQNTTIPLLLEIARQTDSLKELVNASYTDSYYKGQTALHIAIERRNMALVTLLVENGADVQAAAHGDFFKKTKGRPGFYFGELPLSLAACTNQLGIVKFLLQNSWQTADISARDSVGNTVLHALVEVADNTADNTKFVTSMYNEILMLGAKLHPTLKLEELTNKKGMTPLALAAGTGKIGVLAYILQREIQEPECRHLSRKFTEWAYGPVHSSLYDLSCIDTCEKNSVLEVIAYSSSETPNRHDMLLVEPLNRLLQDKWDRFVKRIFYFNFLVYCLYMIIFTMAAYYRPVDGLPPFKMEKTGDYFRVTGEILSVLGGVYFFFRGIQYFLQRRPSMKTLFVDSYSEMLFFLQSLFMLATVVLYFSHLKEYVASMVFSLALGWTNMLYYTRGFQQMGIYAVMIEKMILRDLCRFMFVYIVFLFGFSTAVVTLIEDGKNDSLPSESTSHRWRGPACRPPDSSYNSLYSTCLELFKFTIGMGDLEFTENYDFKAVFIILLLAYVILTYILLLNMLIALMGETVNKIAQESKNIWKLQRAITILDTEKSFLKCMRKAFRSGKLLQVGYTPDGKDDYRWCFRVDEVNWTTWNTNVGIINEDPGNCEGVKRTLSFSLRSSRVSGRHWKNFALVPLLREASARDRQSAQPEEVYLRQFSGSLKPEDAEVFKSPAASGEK
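Cells expressing TRPV1 were dye-loaded with Fluo-8 and read kinetically: 10 s baseline, 3 min after compound (agonist portion), then 2 min after EC20 capsaicin (allosteric enhancer portion). Calcium-bound dye fluorescence at 480/520 nm.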
ClpP mod – qHTS Assay for Activators of ClpP. AID 651965, 2013. actives 1.9% (n = 340,000). Potency, µM (top dose mostly 57.5 µM), inactives show top-dose activity change, negative = active. purified B. subtilis ClpP, FRET peptide cleavage, 20 min; active = well fitted falling curve with a large enough effect; inconclusive = small, poorly fitted or top-dose-only effect; inactive = no such curve, though single readings can be large or run the other way; further: potency means the concentration at half of the fitted maximal effect; the source files actives as falling curves though it sought activators and does not explain the sign; nearly all actives have a fitted effect of over 65% in size; many hits overshoot -100%
Target sequence (P80244 whole entry, looked up): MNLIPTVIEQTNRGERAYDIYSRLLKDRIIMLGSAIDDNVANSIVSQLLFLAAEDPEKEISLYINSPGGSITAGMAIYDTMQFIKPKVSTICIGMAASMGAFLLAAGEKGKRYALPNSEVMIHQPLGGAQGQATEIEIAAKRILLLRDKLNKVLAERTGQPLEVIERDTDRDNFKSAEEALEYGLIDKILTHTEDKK
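FRET quenching reversal measured ClpP activation: 10 microg/mL B. subtilis ClpP at pH 8 with the FRET-FV decapeptide, read at 430 nm after 320 nm excitation. The 20-min minus 0-min signal was scaled between DMSO/no-enzyme wells and ADEP (5.8 microM final).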
Numbers without * were called inactive; ? = inconclusive; nt = no result given; & = joins results of further samples; [ ] = another dose, or the depositor's remark.

Results follow in this order: CtBP-E1A blk	Menin-MLL FL inh	gsp antag	Sfp inh	gsp ag	TRPV1 PAM	ClpP mod
- CS(=O)(=O)N1CCC(C(=O)NCc2ccco2)CC1
 : 8	2.1	9%	-28%	19%	5	0.7%
- COc1ccc(N(CC(=O)NC2CCCCC2)C(=O)c2ccc(C)s2)c(OC)c1
 : -12	-0.8	-6%	14%	11%[15.4 µM]	-6	-1.0%
- NC(=O)C1CCN(C(=O)CSc2nc(O)cc(=O)[nH]2)CC1
 : 4	1.4	10%	6%	-28%	-12	nt
- Cc1ccccc1OCC(=O)OCC(=O)c1ccc(OCc2ccccc2)cc1
 : nt	11	6%	15%	-16%	-3	-1.4%
- O=C(Nc1ccccc1Br)C1CCCN1S(=O)(=O)c1cccc2nsnc12 (stereo not given)
 : -6	nt	-2%	4%	-1%	-10	0.8%
- Cc1cc(=O)oc2cc(OCC(=O)OC(C)C(=O)NC3CCCC3)ccc12 (stereo not given)
 : -1	-3.7	2%	-7%	12%[15.4 µM]	-7	-0.7%
- CC[C@H](C)[C@@H](C(=O)NCCCCCCCCCCC(=O)N1CCNCC1)n1cc(CCCCCN)nn1
 : 0	nt	6%	nt	nt	24	0.8%
- C/C=C(/C)C(=O)Nc1cccc(C2=NOC3(C2)C[C@@H](C(N)=O)N(C(=O)[C@H]2CCC(=O)N2)C3)c1 (stereo not given in full)
 : 0	0.8	4%	18%	nt	11	-6.0%
- N#Cc1ccc(Oc2ccc(C(N)=O)cc2)cc1C#N
 : -9	1.5	-4%	-5%	12%	4	-3.6%
- CCn1c(C)nc2cc(C(=O)NNS(=O)(=O)c3c(C)c(C)cc(C)c3C)ccc21
 : 5	0.2	1%	12%	-7%	2	-1.1%
- CCc1nc(N)nc2c1C(=O)CC(C)(C)C2
 : 1	-3.1	1%	12%	2%	2	-2.9%
- O=C(c1cc2ccccc2oc1=O)N(Cc1ccc2c(c1)OCO2)Cc1ccco1
 : -1	1.0	-23%	8%	-37%[inhibitor]	24	-1.5%
- COCCCN1C(=O)C(=O)/C(=C(/O)c2ccc(S(=O)(=O)N3CCOCC3)cc2)C1c1ccc(OC)cc1 (stereo not given)
 : 3	0.4	15%	5%	0%	?	nt
- COCC(C)n1c(SCC(=O)Nc2cccnc2Cl)nc2ccccc2c1=O (stereo not given)
 : 5	nt	nt	nt	-23%	nt	0.3%
- CC(=O)Nc1cccc(C(=O)Nc2nc(C)cs2)c1
 : 1	-1.4	0%	-7%	3%[15.4 µM]	-25	-0.3%
- Oc1ccc(C[C@H]2CNC(=S)N2CCc2cc(C(F)(F)F)cc(C(F)(F)F)c2)cc1
 : 5	-2.7	3%	26%	12%	5	-1.5%
- CCN1CCC(n2nccc2NC(=O)c2ccccc2Cl)CC1
 : 0	nt	18%	nt	?	nt	-2.0%
- Cc1[nH][nH]c(=O)c1C(c1ccc(-c2ccc(Cl)c(C(=O)O)c2)o1)c1c(C)[nH][nH]c1=O
 : -2	-1.9	0%	-72%	3%	-4	nt
- O=C(Cn1nc(C(F)(F)F)c2c1CCCC2)NCCN1CCOCC1
 : 9	1.3	3%	10%	-2%	0	-1.5%
- O=C(NC1CCC(CC2CCC(NC(=O)C(Cl)Cl)CC2)CC1)C(Cl)Cl (stereo not given)
 : nt	0.8	1%	8%	5%	3	-2.1%
- CN(CC(=O)Nc1cccc(F)c1)C(=O)CCN1C(=O)C2CC=CCC2C1=O (stereo not given)
 : -7	nt	3%	nt	10%	-4	-1.5%
- COc1ccccc1CCNC(=O)c1c(C)nn(CC(C)C)c1Cl
 : -1	nt	-26%	27%	26%	-15	0.6%
- COc1cccc(-c2cc(C(=O)N/N=C/c3ccc(OC)c(COC(C)=O)c3)c3ccccc3n2)c1
 : -11	0.8	-22%	25%	-23%	nt	?
- CCOC(=O)[C@@H]1[C@H]2COc3ccccc3[C@@H]2N2C(=O)N(c3ccc(C(F)(F)F)cc3)C(=O)[C@@]12C
 : 2	nt	1%	nt	11%	nt	-1.8%
- CNC(=S)Nc1ccc(C)c(NC(=S)NC)c1
 : -7	0.6	16%	-25%	-1%[15.4 µM]	-3	nt
- CC1(C)SC2C(C(=O)O)N=C(Cc3ccccc3)N2C1C(=O)O (stereo not given)
 : -84*	nt	-4%	nt	9%	nt	nt
- COc1ccc(COc2cc(-c3cccc(OC)c3)nc3ccc(NC(=O)c4ccc(OC)cc4)cc23)cc1
 : -15	3.8&2.4	9%	14%&11%	11%	-7	3.8%
- CCCNS(=O)(=O)c1cccc(C(=O)OCc2cc(=O)oc3cc(OC)ccc23)c1
 : -2	3.4	11%	13%	?	9	nt
- O=C(CCN1C(=O)/C(=C/c2ccccc2)SC1=S)Nc1ccccn1
 : -14	0.1	-16%	10%	-12%	8	-8.4%
- CC(=O)Nc1ccc(S(=O)(=O)NCc2ccc(C(=O)NCCCN3CCC(C)CC3)cc2)cc1
 : -4	nt	9%	20%	1%	1	-1.5%
- Cc1nc(Nc2ccccc2Br)c2nnn(Cc3ccccc3)c2n1
 : nt	-1.0	8%	-22%	?	0	?
- COc1cc(NC(=O)CSc2nncn2C)cc(OC)c1OC
 : 9	-0.7	1%	21%	2%	-3	1.7%
- CN1CCN(c2c(F)cc3c(=O)c(C(=O)O)cn(CCF)c3c2F)CC1
 : nt	-2.0&-2.7	nt	18%&19%	nt	2	nt
- CCN(CC)Cc1csc2ccc(Br)cc12
 : 10	0.8	-4%	-1%	-5%	-20	-1.0%
- Cc1cc(C)cc(NC(=O)NCc2nnc(SCc3ccccc3)n2C)c1
 : 1	-2.2	-1%	-11%	0%	22	0.8%
- N#CC1=C(N)SC(N)=C(C#N)C1c1ccc([N+](=O)[O-])cc1
 : 7	9.1	?	5µM*	?	11	1.7%
- CC1CCC(NC(=O)c2ccc(-n3cncn3)c([N+](=O)[O-])c2)CC1 (stereo not given)
 : -3	nt	-14%	nt	-24%	-28	-0.9%
- Cc1ccc2cc3cc(C(=O)N4CCN(Cc5ccccc5)CC4)sc3nc2c1
 : 3	-0.7	7%	-9%	-16%	-5	-3.4%
- COc1ccc([C@H]2CN(Cc3ccccc3)C(=O)[C@@H]2CC(=O)Nc2ccccc2)cc1
 : 0	nt	nt	nt	-33%	nt	-1.4%
- COc1ccc(NC(=O)CCC(=O)Nc2cc(OC)c(NC(=O)c3cccs3)cc2OC)cc1
 : -79*	?	-10%	-16%	2%[15.4 µM]	16	nt
- COc1ccc(OCC(O)CNCCOc2ccccc2OC)c(C(C)(C)C)c1 (stereo not given)
 : nt	4.8	-7%	?	-4%	8	1.2%
- CCOc1ccc(NC(=O)NC(C)CC)cc1 (stereo not given)
 : 0	-1.2	2%	-2%	-57%[inhibitor]	-3	nt
- O=Cc1ccc(Oc2ncccn2)cc1
 : 0	1.5	7%	10%	-4%[15.4 µM]	-5	nt
- CC1CCC2C(=O)N(c3ccc(S(=O)(=O)c4ccccc4)cc3)C(=O)C2C1 (stereo not given)
 : 5	9.8	0%	10%	37%	6	-0.2%
- Cc1cc(C)c(NC(=O)CN)c(C)c1
 : 2	0.0	16%	15%	7%[15.4 µM]	13	nt
- Cc1cc(NC(=O)c2cccs2)n(-c2nc3ccccc3[nH]2)n1
 : -4	5.8	-9%	10%	-10%[15.4 µM]	-2	nt
- CC1CN(C(=S)SCC(=O)c2ccc([N+](=O)[O-])cc2)CC(C)O1 (stereo not given)
 : -26	-7.8	6%	12%	-27%	-7	nt
- CC(C)(C)S(=O)(=O)/C(C#N)=N/Nc1ccc(Cl)cc1
 : -8	-0.1	-16%	23%	1%[15.4 µM]	8	nt
- COc1cccc(O)c1CN1CCCC(C(=O)c2cccc(C(F)(F)F)c2)C1 (stereo not given)
 : 12	-3.3	0%	71µM*	8%	-1	nt
- CCOC(=O)c1ccc(S(=O)(=O)Nc2cc(S(=O)(=O)N3CCOCC3)ccc2O)cc1
 : -3	nt	-16%	nt	-2%	nt	0.3%
- Nc1nc(N)c2cc(Sc3ccc(Cl)cc3)ccc2n1
 : -7	nt	nt	nt	-6%	nt	4.5%
- O=C(COC(=O)COc1cccc(C(F)(F)F)c1)Nc1ccc(N2CCOCC2)cc1
 : nt	nt	8%	nt	-32%	14	2.6%
- COc1cc(/C=C/C(=O)OCN2C(=O)c3ccccc3C2=O)ccc1OC(F)F
 : 7	nt	1%	18%	4%[15.4 µM]	?	-26%
- CCOC(=O)C(CCOc1cccc(CC)c1)C(=O)OCC
 : 46	-0.3	5%	-2%	17%	-9	-2.1%
- COc1cc(NC(=O)CNC(=O)Cn2ccc3ccccc3c2=O)cc(OC)c1OC
 : -3	-1.3	6%	0%	?	1	-9.0%
- CCCCCCCCOC(=O)c1ccc(N)cc1
 : 15	2.0	4%	43%[activator]	4%	7	0.8%
- CC(C)(C)n1nc2c(c1NC(=O)Cc1cccc3ccccc13)CS(=O)(=O)C2
 : -19	-1.1	-9%	12%	5%[15.4 µM]	5	-0.7%
- CC(C)C(C(=O)O)N1C(=O)C2C3CCC(C3)C2C1=O (stereo not given)
 : -12	nt	nt	nt	-57%[inhibitor]	nt	-1.7%
- Cc1cccc(NC(=S)NC(=O)/C=C/c2ccco2)n1
 : 1	?	-15%	?	-3%	5	7.8%
- N#CCc1nn2c(-c3ccccc3)ccnc2c1C#N
 : 3	4.2	-12%	8%	?	30	3.7%

Continuation.
Results follow in this order: CtBP-E1A blk	Menin-MLL FL inh	gsp antag	Sfp inh	gsp ag	TRPV1 PAM	ClpP mod
- CC(=O)Nc1ccc(S(=O)(=O)NCCc2cn3nc(C)c(C)nc3n2)cc1
 : nt	-3.3	3%	13%	?	5	4.1%
- CCOC(=O)c1c(N)sc2c1CCC1C(=O)N(C3CCCCC3)C(=O)C21 (stereo not given)
 : 12	?	-20%	20µM*	-8%	?	-1.2%
- Cc1ccsc1/C=N/n1c(COc2ccccc2)n[nH]c1=S
 : 2	3.0	-8%	-10%	-46%[inhibitor]	4	0.5%
- Cn1nc(C(=O)Nc2cccc(S(=O)(=O)N3CCOCC3)c2)c2ccccc2c1=O
 : -13	nt	-1%	nt	?	-9	-1.5%
- Cc1nnc2c(NC3CCCC3)nc3ccccc3n12
 : -12	-1.8	nt	-1%	0%[15.4 µM]	-28	nt

Bioassay records as filed in PubChem.

Not a hit list; 5.3% or so of the library scored in one or more.
